Bioassay records from PubChem.
Hedgehog: Drosophila hedgehog isoform A inhibitors, primary screen, biochemical, plate reader, single concentration (AID 588832). Biochemical plate reader assay, Hedgehog inhibition; stronger effect = higher value. inhibition, % at 30.3 µM. 8,000 tested, under 10 active; in the data active = inhibition from about 57%;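 also: 0% = neutral control wells and 100% = positive control wells; cholesterol-driven self-cleavage of fly hedgehog protein by fluorescence polarization; read one hour after cholesterol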
Active calls of the source: *. The list is partial; the hit share may differ from the screen's.

SMILES	Hedgehog
Cc1cc(C)cc(N2CC(c3nc4ccccc4n3C)CC2=O)c1 (centres undefined)	5
COc1cccc(C2CC(c3ccc(Cl)cc3)Nc3nc(N)nn32)c1 (centres undefined)	23
Cc1cccn2cc(CCNC(=O)c3ccco3)nc12	1
C=C(C)COc1ccc2c(C)c(CC(=O)N3C[C@H]4C[C@@H](C3)c3cccc(=O)n3C4)c(=O)oc2c1C	2
Cc1cc(Cl)cc2sc(NC(=O)C3CC3)nc12	9
COc1cc(OC)cc(C(=O)NC(=S)N2CCCCC2c2cccnc2)c1 (centres undefined)	5
COc1c2ccoc2c(OC)c2oc(=O)ccc12	5
O=C(c1cc(-c2ccc(O)cc2)on1)N1CCc2ccccc2C1	38
CC1Cc2nc(SCC(=O)N3CCN(c4ccccc4)CC3)n(CCc3ccccc3)c(=O)c2S1 (centres undefined)	3
O=C(NCCn1ccc2ccccc21)c1ccc(S(=O)(=O)N2CCCCC2)cc1	3
O=C(NC1CC1)C(=O)c1c(-c2ccccc2)[nH]c2ccccc12	7
Clc1cc(Cl)c(Cl)c(Cl)c1Cl	-2
O=C(NCCc1csc(-c2cccnc2)n1)c1ccccc1	4
Cc1ccc2c(cnn2C(=O)CCCC(=O)NCc2ccc(Cl)cc2)c1	2
Cc1cc2c(cc1S(=O)(=O)NCc1ccccc1)OCC(=O)N2	4
COc1cc(/C=C/C(=O)NCCn2c(C)cc3ccccc32)cc(OC)c1OC	19
Cc1cc2[nH]c(=O)c(=O)[nH]c2cc1S(=O)(=O)N1CCC(C)CC1	20
CCOC(=O)N1CCN(C(=O)c2oc(=O)c3ccccc3c2-c2ccc(C)cc2)CC1	9
COC(=O)[C@@H](Cc1ccc(O)cc1)NC(=O)[C@H]1CCC(=O)N1C(=O)OCc1ccccc1	14
CC1c2cc3c(cc2CCN1CC(=O)Nc1ccccc1)OCCCO3 (centres undefined)	5
Cc1c(OC(C)C(=O)N[C@H](C(=O)O)c2ccccc2)ccc2c3c(c(=O)oc12)CCCC3 (some centres undefined)	4
COc1ccc2c(c1)cc(C(=O)N[C@H](C(=O)N1CCC[C@H]1C(=O)O)C(C)C)n2C	5
NC(=O)C1(N2CCCCC2)CCN(C(=O)c2ccccc2)CC1	0
COc1ccc(-c2cn(-c3cccc(C)c3)c(=O)[nH]2)cc1OC	4
C=C(C)C(=O)OCC(C)C	7

(continued)
SMILES	Hedgehog
CCc1ccc(CNC(=O)CCCn2nc(C)n3ccnc3c2=O)cc1	7
O=C(O)c1cccc(C(=O)O)c1	4
Cc1noc(C)c1S(=O)(=O)N1CCN(C(c2ccccc2)c2ccc(Cl)cc2)CC1 (centres undefined)	8
CC1=CCC[C@H]2[C@H](C1)C(=O)C[C@@H](C)[C@]2(C)CC/C(=C/CO)CO	3
COc1ccc2[nH]c3c(c2c1)CCN1C(=O)N([C@@H](C)C(=O)NCC2CCCO2)C(=O)[C@]31C (some centres undefined)	10
COc1cc(CCc2ccc3c(c2)OCO3)oc(=O)c1	4
Cc1ccc2oc(=O)c3cnn(CC(=O)Nc4ccccc4N4CCN(C)CC4)c3c2c1	10
O=C(c1ccccc1)N1CCCCC1	2
CN(CCNC(=O)c1cn(C)c2ccc(S(=O)(=O)N(C)C)cc2c1=O)CCc1ccccc1	17
CC(C)c1onc(C(=O)N2CCN(Cc3ccccc3)CC2)c1[N+](=O)[O-]	17
O=C(C1CCCN(S(=O)(=O)c2cccnc2)C1)N1CCN(c2ccccn2)CC1 (centres undefined)	21
Cc1nn(C)c(C)c1S(=O)(=O)N1CCC(C(=O)NC2CCCc3ccccc32)CC1 (centres undefined)	2
C=CCn1c(=O)n(CCOC)c(=O)c2sc3ccccc3c21	2
COC(=O)c1ccccc1NC(=O)C1CCN(C(=O)N2CCOc3ccccc32)CC1	4
COc1ccc(CCNS(=O)(=O)c2cn(C)c(=O)n(C)c2=O)cc1	10
Cn1c(C(=O)NCCN2CCCCCC2)cc2c(=O)n(C)c3ccccc3c21	12
COc1ccc(-n2c(Cc3cccn3C)nnc2SCC(=O)NCc2ccccc2Cl)cc1	8
Cc1cc(O)c(C=O)c2c1C(=O)Oc1c(CO)c(O)c3c(c1O2)C(O)OC3=O (centres undefined)	34
CCc1ccccc1NC(=O)C1NC(=O)CC1c1ccccc1 (centres undefined)	11
CCCNC(=O)CS(=O)(=O)Cc1nc(-c2ccccc2C)oc1C	24
CC1=C(C(=O)OC(C)C)C(c2c[nH]c3ccccc23)n2ncnc2N1 (centres undefined)	5
O=C(CSc1nc2ccccc2nc1N1CCOCC1)N1CCN(c2ccccc2)CC1	2
CCN(C(=O)CCS(=O)(=O)c1cc2c(cc1Cl)NC(=O)CO2)c1ccccc1	21
CCN(Cc1ccccc1)C(=O)CCS(=O)(=O)c1cc2c(cc1Cl)NC(=O)CO2	5
COc1ccccc1C1CC(c2ccc(Cl)cc2Cl)Nc2nc(N)nn21 (centres undefined)	23

Further records.
SMILES	Hedgehog
Cc1cc(C)cc(NC(=O)CSc2nc3ccncc3[nH]2)c1	8
Cc1ccc(CNC(=O)COc2cc(O)c3c(c2)OC(C)(C)CC3=O)cc1	-2
CCOc1ccc(NC(=O)CN2C(=O)C3CCCN3C2=O)cc1 (centres undefined)	7
Cc1ccc2c(c1)N(C(=O)CCC(=O)NCCN1CCOCC1)CC(C)O2 (centres undefined)	3
COc1ccc(OC)c(-c2nc(C(=O)NCCCN3CCOCC3)cc3c2[nH]c2ccccc23)c1	9
O=C(Nc1ccc2nc3n(c(=O)c2c1)CCCC3)c1cccnc1Cl	5
COc1ccccc1CNC(=O)COc1cc2c(c3oc(=O)cc(C)c13)CCC(C)(C)O2	5
Cn1cc(S(=O)(=O)N2CCOCC2)cc1C(=O)Nc1cccc(Cl)c1	5
CCOC(=O)C1CCN(C(=O)CCS(=O)(=O)c2ccc3c(c2)n(C)c(=O)c(=O)n3C)CC1	10
COc1ccc(/C=C/C(=O)NCCn2c(C)cc3ccccc32)cc1OC	5
COc1ccc(CCNC(=O)C(=O)NCC2OCCN2S(=O)(=O)c2cc(F)ccc2F)cc1OC (centres undefined)	3
CC(C)c1ccc2nc(NC(=O)C3CC3)sc2c1	3
O=C(Cn1cc2c(n1)CCCCC2)N1CCc2ccccc2C1	17
CCOC(=O)CN1CC23C=CC(O2)C(C(=O)N2CCN(c4ccc(F)cc4)CC2)C3C1=O (centres undefined)	10
C/C=C/c1cc(OC)c2c(c1)[C@H](C)[C@@H](c1ccc(O)c(OC)c1)O2	0
O=c1c(O)c(-c2ccc(O)cc2)oc2cc(O)cc(O)c12	2
CCOc1ccc(NC(=O)CC2C(=O)N(c3ccc(OC)cc3)C(=O)N2Cc2ccc(OC)cc2)cc1 (centres undefined)	5
CCCCN(CC)CCNC(=O)c1cc2c(C)nc3ccccc3c2o1	9
O=C(Nc1nc2c(Br)cccc2s1)C1CC1	8
Oc1c(C(c2cccs2)N2CCN(c3ccc(F)cc3)CC2)sc2ncnn12 (centres undefined)	1
O=S(=O)(c1ccc(Br)cc1)N1CCn2c(nc3ccccc32)C1	9
COc1ccc(N2CCN(C(=O)C3CCCN(S(=O)(=O)c4cccc5cccnc45)C3)CC2)cc1 (centres undefined)	20
Cc1ccc(Cl)c2sc(NC(=O)C3CC3)nc12	9
Cc1cc2cc(CNS(=O)(=O)c3ccccc3)ccc2n1C	7
COc1cccc(C(=O)NCC(c2cccnc2)N2CCN(c3ccccc3OC)CC2)c1 (centres undefined)	-4

Single values from the list.
O=C(CSc1nc2ccccc2nc1N1CCOCC1)N1CCN(c2ccccc2)CC1 | Hedgehog: 2
C=C(C)C(=O)OCC(C)C | Hedgehog: 7

(next part)
SMILES	Hedgehog
O=C1c2ccccc2C(Nc2ccccc2F)N1c1cccnc1 (centres undefined)	3
Cc1cc(C)cc(NC(=O)c2nnn(Cc3cc(C)ccc3C)c2N)c1	19
O=c1ccc2cc(S(=O)(=O)N3CCN(c4ccccc4)CC3)ccc2[nH]1	2
CC1=CC(=O)CC(C)(C)[C@@]1(O)/C=C/[C@@H](C)O[C@@H]1O[C@H](CO)[C@@H](O)[C@H](O)[C@H]1O	9
O=C(Cc1cc(=O)[nH]c(=O)[nH]1)NCCN1CCOCC1	10
CC1CN(C(c2cccs2)c2sc3ncnn3c2O)CC(C)O1 (centres undefined)	7
CCc1ccc(NC(=O)C2=CC(c3ccc(OC)cc3)=NS(=O)(=O)N2C)cc1	5
Cc1nnc(SCC(=O)Nc2ccc3c(c2)COC3=O)n1-c1ccccc1	8
CCOc1ccccc1CNC(=O)C1CCN(C(=O)N2CC(C)Oc3ccc(C)cc32)CC1 (centres undefined)	7
CC(=O)N1CCN=C1SCc1ccccc1	2
Cn1c(SCc2cccnc2)nnc1-c1c[nH]c2ccccc12	10
O=C1c2ccccc2C(Nc2ccc3c(c2)OCO3)N1Cc1ccco1 (centres undefined)	-3
O=C(Cn1cnc2c(nnn2-c2ccccc2)c1=O)NCc1ccc(F)cc1	2
O=C(CCS(=O)(=O)c1ccccc1)Nc1nc(-c2cccs2)cs1	5
Cc1ccc(CNC(=O)C(=O)NCC2OCCN2S(=O)(=O)c2cccs2)cc1 (centres undefined)	10
Cc1[nH]c(=O)[nH]c(=O)c1S(=O)(=O)N1CCCC(C(=O)N2CCC(Cc3ccccc3)CC2)C1 (centres undefined)	5
N#CC1=C2SCN(c3ccc(F)cc3)CN2C(=O)CC1c1cccc(F)c1 (centres undefined)	7
NC(=O)C1CCN(C(=O)CCC(=O)N2CCOc3ccc(Cl)cc32)CC1	8
O=C(Cn1cnc2c(nnn2Cc2ccccc2)c1=O)N1CCN(c2ccccc2)CC1	0
COc1ccccc1N(C)C(=O)c1cc(S(=O)(=O)N2CCCC2)cn1C	9
CC(O)C1CCC2C3CCC4CC(O)CCC4(C)C3C(=O)CC12C (centres undefined)	3
Cc1ccc(Cn2c(C)c3cnn(CC(=O)NC4CCCC4)c(=O)c3c2C)cc1	7
Cc1ccccc1-c1nc(C(=O)NCC2CCCO2)cc2c1[nH]c1ccccc12 (centres undefined)	7
CCOC(=O)c1[nH]c(C)c(C(=O)N(CC)CC)c1C	15
O=S(Cc1ccccc1)Cc1ccccc1	13

Following part
SMILES	Hedgehog
CCOc1ccc(CCNC(=O)CCC(=O)N2CCOc3ccccc32)cc1OCC	7
CC(=O)NC(Cc1c[nH]c2ccccc12)C(=O)O (centres undefined)	7
CC1(C)[C@H](C(=O)O)N2C(=O)C[C@H]2S1(=O)=O	5
Cc1c(OCC(=O)NC(Cc2ccc(Cl)cc2)C(=O)O)ccc2c3c(c(=O)oc12)CCC3 (centres undefined)	10
CCOC(=O)c1ccc(NCc2nc3ccccc3[nH]2)cc1	5
COc1ccccc1N1CCN(S(=O)(=O)c2cc3c(cc2C)NC(=O)CO3)CC1	7
CCN1CCN(C(=O)C2CCN(C(=O)c3cc4sccc4n3CC)CC2)CC1	-1
CCCNC(=O)C1CC(=O)N(c2ccc(OCC(=O)Nc3cc(C)cc(C)c3)cc2)C1 (centres undefined)	12
COc1cccc(C2CC(c3ccccc3C)n3nc(N)nc3N2)c1 (centres undefined)	25
CCOc1ccc(Cn2nnc(C(=O)Nc3cc(C)cc(C)c3)c2N)cc1	5
O=C1C2CCCN2C(c2ccc(F)cc2)N1c1ccc(Cl)cc1 (centres undefined)	25
Cc1ccc(NC(=O)Cn2cc(S(=O)(=O)c3ccccc3)c(=O)c3cc(F)ccc32)cc1	17
Cc1ccc(C2CC(c3cccc(Cl)c3)n3nc(N)nc3N2)cc1 (centres undefined)	-71
CSCC[C@H](NC(=O)[C@H](Cc1ccccc1)n1c(=O)[nH]c2ccccc2c1=O)C(=O)NCC1CCC(C(=O)O)CC1 (some centres undefined)	5
COc1ccc2nc3ccccc3nc2c1	2
COc1cccc(/C=C2\Oc3cc(OCC(=O)N4CCC[C@H]4C(=O)O)ccc3C2=O)c1	0
CCn1c(SC)nnc1-c1c[nH]c2ccccc12	4
COc1ccc(-c2cc(=O)oc3cc(OC(C)C(=O)NCc4ccccn4)ccc23)cc1 (centres undefined)	7
Cn1c(SCc2ccccc2)nnc1-c1c[nH]c2ccccc12	4
CCN(CC)S(=O)(=O)c1ccc(C(=O)NCCSc2c[nH]c3ccccc23)cc1	7
COCOc1ccc(C=O)c(O)c1	9
NS(=O)(=O)c1ccc(NC(=O)Cn2ncc3c2-c2ccccc2OC3)cc1	7
CC(C)(O)CCCC(C)(O)c1ccc(C(=O)O)cc1O (centres undefined)	7
Cc1cccc(NC(=O)C2CCN(C(=O)N3CCOc4ccccc43)CC2)c1C	7

In the list so far, 16 have a Cl atom.
SMILES	Hedgehog
COc1cccc(C2CC(c3ccc(Cl)cc3)Nc3nc(N)nn32)c1 (centres undefined)	23
Cc1cc(Cl)cc2sc(NC(=O)C3CC3)nc12	9
Clc1cc(Cl)c(Cl)c(Cl)c1Cl	-2
Cc1ccc2c(cnn2C(=O)CCCC(=O)NCc2ccc(Cl)cc2)c1	2
Cc1noc(C)c1S(=O)(=O)N1CCN(C(c2ccccc2)c2ccc(Cl)cc2)CC1 (centres undefined)	8
COc1ccc(-n2c(Cc3cccn3C)nnc2SCC(=O)NCc2ccccc2Cl)cc1	8
CCN(C(=O)CCS(=O)(=O)c1cc2c(cc1Cl)NC(=O)CO2)c1ccccc1	21
CCN(Cc1ccccc1)C(=O)CCS(=O)(=O)c1cc2c(cc1Cl)NC(=O)CO2	5
COc1ccccc1C1CC(c2ccc(Cl)cc2Cl)Nc2nc(N)nn21 (centres undefined)	23
O=C(Nc1ccc2nc3n(c(=O)c2c1)CCCC3)c1cccnc1Cl	5
Cn1cc(S(=O)(=O)N2CCOCC2)cc1C(=O)Nc1cccc(Cl)c1	5
Cc1ccc(Cl)c2sc(NC(=O)C3CC3)nc12	9
NC(=O)C1CCN(C(=O)CCC(=O)N2CCOc3ccc(Cl)cc32)CC1	8
Cc1c(OCC(=O)NC(Cc2ccc(Cl)cc2)C(=O)O)ccc2c3c(c(=O)oc12)CCC3 (centres undefined)	10
O=C1C2CCCN2C(c2ccc(F)cc2)N1c1ccc(Cl)cc1 (centres undefined)	25
Cc1ccc(C2CC(c3cccc(Cl)c3)n3nc(N)nc3N2)cc1 (centres undefined)	-71
